Screening data from PubChem BioAssay.
Beta2AR agonist = activates human beta-2 adrenergic receptor causing internalization. P07550. Am2.2-beta2AR cells, FAP receptor internalization, flow cytometry; reference of the scale not given here. response, % (test concentration not listed). 340,000 compounds, 0.43% hits. AID 504454;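 active = response above a set limit, near 3 SD of response in nonfluorescent compounds, cut at about 42% in these data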;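 note: stock transfer was 100 nL into about 11 µL; a reference agonist was the positive control; negative values mostly stem from fluorescent compounds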
Target sequence (P07550 whole entry, looked up): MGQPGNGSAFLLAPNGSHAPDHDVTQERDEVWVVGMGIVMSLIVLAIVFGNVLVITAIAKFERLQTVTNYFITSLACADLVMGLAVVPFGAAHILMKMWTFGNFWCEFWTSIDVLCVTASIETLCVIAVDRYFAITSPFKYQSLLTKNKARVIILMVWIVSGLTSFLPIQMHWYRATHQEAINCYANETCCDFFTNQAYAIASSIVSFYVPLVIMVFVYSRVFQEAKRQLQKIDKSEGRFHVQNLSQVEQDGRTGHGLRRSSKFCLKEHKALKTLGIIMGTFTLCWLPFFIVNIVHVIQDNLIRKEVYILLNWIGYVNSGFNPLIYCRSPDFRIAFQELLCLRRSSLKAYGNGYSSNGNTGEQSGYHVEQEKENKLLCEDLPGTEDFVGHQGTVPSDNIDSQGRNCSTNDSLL
RanGTP-Imp inh = disruptors of Ran-importin-beta complex formation – biochemical, FRET, CFP-Ran, YFP-importin-beta, homogeneous, primary screen; cell-free CFP-Ran/YFP-importin-beta FRET ratio; inhibition, % (test concentration not listed); 300,000 compounds, 1.1% hits; AID 2216;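 active = most replicates above 15%; inconclusive = exactly half above 15%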;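 note: 0% = DMSO wells and 100% = Ran loaded with GDP instead of GTP; wells of about 40 µL received 100 nL stock; the first replicate is given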
HNF4A DNA FP = change in binding of human HNF4 alpha to DNA; activity change, % at 10 µM; P41235; AID 1224865; 360,000 compounds, 0.3% hits; HNF4a-FITC DNA binding, fluorescence polarization, 1 h; in the data active = activity change above about 30%, passing the limit was not always enough;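 note: controls were the assay level and a saturating level of protein; the project sought stronger binding though the title names inhibitors; some compounds called inactive have numbers as strong as hits; positive values seem to mean higher polarization but the record does not say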
Vif TR-FRET = HIV-1 Vif–A3G interaction blockers – biochemical, TR-FRET, GST-Vif 1-94, biotin-A3G peptide, dose response retest, primary screen (AID 1117319) | one-dose inhibition, %; IC50 in µM for titrated hits | 260,000 compounds, 0.57% hits | TR-FRET GST-Vif / biotin-A3G peptide binding; higher % means a stronger effect; test concentration not given here; strong numbers were not always called active;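 active = above the screen mean plus three standard deviations and confirmed in dose response; inconclusive = results disagree or hit not tested in dose response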;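 note: Vif residues 1-94 fused to GST binding biotinylated APOBEC3G peptide 110-148; 0% = full assay without inhibitor and 100% = GST in place of GST-Vif; retest series ran down from 100 µM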
LANA-H2B inh = blocks KSHV LANA binding to histone H2A/H2B | inhibition, % (concentration not given with the values) | cell-free LANA-H2A/H2B peptide, fluorescence polarization | Q9QR71 | AID 2629 | 320,000 compounds, 0.6% hits; in the data active = inhibition mostly above about 10%, no sharp cut-off; inactive = mostly below about 6.7%;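 note: stock transfer was 7.5 nL into about 10 µL; 0% = median of vehicle wells and 100% = median of positive control wells; one replicate is shown; the record names a cut of 25% in any replicate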
Calb FLC = affects C. albicans growth with fluconazole; C. albicans CaCi-2 (fluconazole-resistant clinical isolate) + fluconazole, Alamar Blue growth, 48 h; growth inhibition, % (concentration not given with the values); 300,000 compounds, 0.57% hits;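 active = most replicates above 75%; inconclusive = exactly half above 75%; inactive = most below 75%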;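 note: all wells also contain fluconazole at 8 µg/ml as a sub-toxic cotreatment; 0% = median of DMSO wells and 100% = median of geldanamycin control wells; wells of about 8 µL received 7.5 nL stock; the first replicate is given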
ALR inh = blocks human ALR sulfhydryl oxidase activity. purified ALR, DTT oxidation, H2O2 HRP-luminol luminescence. inhibition, % (concentration not given with the values). 290,000 compounds, 3.8% hits;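 active = mean and each replicate at 75% or more; inconclusive = only one of the two met; inactive = neither met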;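 note: stock transfer was 7.5 nL into about 7.5 µL; 0% = neutral wells and 100% = wells with inactivated enzyme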
Target sequence (P55789 whole entry, looked up): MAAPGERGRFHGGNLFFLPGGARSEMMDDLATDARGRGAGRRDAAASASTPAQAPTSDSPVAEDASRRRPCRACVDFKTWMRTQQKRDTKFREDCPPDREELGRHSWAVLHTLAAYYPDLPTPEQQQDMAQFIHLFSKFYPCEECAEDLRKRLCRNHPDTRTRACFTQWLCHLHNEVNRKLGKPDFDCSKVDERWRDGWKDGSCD
Active calls of the source: *; ? = inconclusive; . = no result given. Rows are unselected; about 6.3% have a hit in one of these screens.

SMILES	Beta2AR agonist	RanGTP-Imp inh	HNF4A DNA FP	Vif TR-FRET	LANA-H2B inh	Calb FLC	ALR inh
CCN1CCN(C(=O)c2ccc(CSc3ccc(C)cc3)cc2)CC1	-6	3.6	-3.6	0%	-0.4	98*	-21
CC1=NC(C)(C)Cc2cc(C)c(C)cc21	-1	-2.8	6.0	.	-3.8	3	-5
CCCNC(=O)C(Cc1ccccc1)NC(=O)c1ccc(C(C)(C)C)cc1 (centres undefined)	13	.	2.4	.	-5.4	.	1
CCCOc1ccc(N2C(=O)CC(N3CCN(CCN=CC4=C(O)CC(C)(C)CC4=O)CC3)C2=O)cc1 (centres undefined)	-13	-2.4	0.4	9%	2.4	33	-17
COc1ccc(C2C3=C(CCCC3=O)Nc3nc(SCc4ccc(C(=O)O)cc4)nn32)cc1OC (centres undefined)	-6	5.5	0.0	4%	2.5	-17	-10
NC(=O)C1CCCN(C(=O)Nc2cccc3ccccc23)C1 (centres undefined)	5	-0.3	2.7	0%	-4.0	-7	-11
Cc1cc(NC(=O)CSc2nncn2-c2ccccc2)no1	3	3.1	2.4	.	-3.5	-5	-4
C=CCc1cccc2cc(C(=O)NC3=C(C#N)CCC3)c(=O)oc12	-11	6.0	-7.4	3%	-9.3	-3	-2
COC(=O)C1(C(F)(F)F)N=C(C(F)(F)F)Nc2ccc(Cl)cc21 (centres undefined)	2	-5.6	-0.5	.	3.7	-9	-2
Cc1cc(Oc2ccc(C#N)cc2)nc(N2CCOCC2)n1	5	0.0	1.4	-1%	-0.7	28	-1
CCOc1ncccc1C(=O)OCC(=O)NCCc1ccccc1	0	-5.5	2.6	-3%	0.2	3	-3
Cn1c(=O)[nH]c(=O)c2c1nc(N1CCCCCC1)n2CCCSc1nc2ccccc2o1	-6	-3.4	-2.2	14%	0.9	2	-1

Results in Beta2AR agonist, for 4 of the compounds above:
smiles	Beta2AR agonist
CC1=NC(C)(C)Cc2cc(C)c(C)cc21	-1
CCCNC(=O)C(Cc1ccccc1)NC(=O)c1ccc(C(C)(C)C)cc1 (centres undefined)	13
CCCOc1ccc(N2C(=O)CC(N3CCN(CCN=CC4=C(O)CC(C)(C)CC4=O)CC3)C2=O)cc1 (centres undefined)	-13
COc1ccc(C2C3=C(CCCC3=O)Nc3nc(SCc4ccc(C(=O)O)cc4)nn32)cc1OC (centres undefined)	-6

Next entries follow:
SMILES	Beta2AR agonist	RanGTP-Imp inh	HNF4A DNA FP	Vif TR-FRET	LANA-H2B inh	Calb FLC	ALR inh
COc1ccc(NC(=O)CN(C)C(=O)CCCSc2nc3ccccc3[nH]2)cc1	-3	8.6	0.9	3%	-1.9	3	3
COc1cc(O)sc1C=Nc1ccc(Cl)cc1	-12	7.2	1.3	7%	-4.3	0	95*
C[C@@H](NC(=O)[C@@H]1Cc2ccccc2CN1)C(=O)NC1CCCC1	4	3.1	-0.7	-4%	4.3	-1	-2
CCOC(=O)C(C)Oc1ccc(OCc2ccccc2)cc1 (centres undefined)	-2	-2.2	-0.6	?	-3.3	-8	.
CC(C)S(=O)(=O)c1csc(C(=O)NN)c1Cl	-5	0.4	0.7	0%	-3.0	6	-10
COCCCNC(=O)c1cccc(S(=O)(=O)N2CC3(C)CC2CC(C)(C)C3)c1 (centres undefined)	-1	-1.1	0.5	.	-0.3	0	1
Cc1ccc(C(=O)c2cn[nH]c2-c2ccccc2O)cc1	4	3.4	-1.8	1%	0.2	2	18
CS(=O)(=O)c1ccc(Cl)c(C(=O)O)c1	-6	-2.6	-5.3	6%	-5.3	2	-8
Cc1ccc(S(=O)(=O)NNC(=O)Nc2cccc(F)c2)c(C)c1	3	1.3	-4.0	4%	1.3	7	1
COc1cc(S(=O)(=O)N(Cc2ccccc2)Cc2ccccn2)ccc1-n1cnnn1	-11	5.1	-3.9	.	2.2	2	-14
O=C(CSc1nc2ccccc2[nH]1)N1c2ccccc2Sc2ccccc21	-4	6.8	4.3	2%	.	-3	.
Cc1cccn2c(=O)nc(SCC(=O)NCc3ccc4c(c3)OCO4)nc12	-2	2.8	0.4	-4%	1.2	.	-6

Random excerpt: 2 entries already listed
SMILES	Beta2AR agonist	RanGTP-Imp inh	HNF4A DNA FP	Vif TR-FRET	LANA-H2B inh	Calb FLC	ALR inh
Cc1ccc(S(=O)(=O)NNC(=O)Nc2cccc(F)c2)c(C)c1	3	1.3	-4.0	4%	1.3	7	1
CC(C)S(=O)(=O)c1csc(C(=O)NN)c1Cl	-5	0.4	0.7	0%	-3.0	6	-10

Next records.
SMILES	Beta2AR agonist	RanGTP-Imp inh	HNF4A DNA FP	Vif TR-FRET	LANA-H2B inh	Calb FLC	ALR inh
CCC(C(=O)OCC(=O)C1(O)CCC2C3CCC4=CC(=O)CCC4(C)C3C(O)CC21C)C(C)C (centres undefined)	6	.	-3.1	1%	.	.	.
COC(=O)COc1ccc(S(=O)(=O)NCc2cccnc2)cc1	0	0.7	-4.0	-3%	-0.4	27	-6
O=S(=O)(Nc1nc2ccccc2nc1NCC1CCCO1)c1cccs1 (centres undefined)	-3	-3.7	3.1	5%	-0.4	?	10
CSc1cnc2c(=O)[nH]c(=O)n(C)c2n1	3	1.0	-3.1	.	4.0	11	-4
O=C(NC1CCN(C(=O)C2CCCCC2)CC1)c1ccccc1	7	2.9	3.3	-1%	5.8	-1	.
Cn1cnc([N+](=O)[O-])c1Nc1ccccc1O	3	-1.7	0.7	15%	-3.2	-3	33
CCOC(=O)C1CCN(c2cc3c(cc2NC(=O)c2ccccc2Br)n(C)c(=O)n3C)CC1	4	-38	-0.2	2%	-3.1	32	-10
Cc1cc(C(=O)CN2C(=O)c3ccccc3S2(=O)=O)c(C)n1C(C)C	6	.	-2.7	0%	3.2	.	24
COc1ccc(C(=O)N2CCC(C(=O)c3ccc(F)cc3)CC2)cc1	7	2.1	-0.4	2%	-5.1	-13	-15
COCCN(C(=O)CCN1C(=O)C2CC=CCC2C1=O)c1c(N)n(CC(C)C)c(=O)[nH]c1=O (centres undefined)	3	.	-0.8	-5%	-2.2	.	1
CCN(Cc1ccccc1)S(=O)(=O)c1c(C(=O)N2CCCC2)c(C)n(C)c1C	-11	2.6	0.2	.	-1.0	-3	-1
COc1ccc(S(=O)(=O)NCC(=O)NCc2cc(=O)n(C)c(=O)n2C)cc1	2	4.0	0.3	-2%	1.6	.	-3

With a hit mark in ALR inh (from the list above):
Compound | Beta2AR agonist | RanGTP-Imp inh | HNF4A DNA FP | Vif TR-FRET | LANA-H2B inh | ALR inh
COc1cc(O)sc1C=Nc1ccc(Cl)cc1 | -12 | 7.2 | 1.3 | 7% | -4.3 | 95*

Profiles as entered above. Order of screens: Beta2AR agonist, RanGTP-Imp inh, HNF4A DNA FP, Vif TR-FRET, LANA-H2B inh, Calb FLC, ALR inh
Record of Cc1cc(C(=O)CN2C(=O)c3ccccc3S2(=O)=O)c(C)n1C(C)C : 6, ., -2.7, 0%, 3.2, ., 24
Record of CSc1cnc2c(=O)[nH]c(=O)n(C)c2n1 : 3, 1.0, -3.1, ., 4.0, 11, -4
